H5N1 antiviral: MDCK cell protection from H5N1 avian flu; hit rate 0.07% among 96,000; cytopathic effect, luminescence, 72 h; hits give high values; no value below 0 was filed and about half of the inactive calls have no number; reference of the scale not given here; inhibition, % at 50 µM; AID 740; in the data active = inhibition above about 25%
* hit, by the source's call. Not all compounds are listed, so the mix of outcomes need not match the whole.

Screening Cc1[nH]nc2c1C(c1ccsc1)C(C#N)=C(N)O2 (configuration not stated) returned H5N1 antiviral inactive.
Screening CCn1c(SCC(=O)N2CCN(S(=O)(=O)c3ccccc3)CC2)nnc1-c1cccs1 returned H5N1 antiviral 1.1.
For O=C(Nc1ccccc1SCC1CSc2nc3ccccc3c(=O)n21)c1cccc(Cl)c1 (configuration not stated) the results were H5N1 antiviral 9.3.
`NC/C(=N\O)c1ccc(Cl)cc1Cl` gave H5N1 antiviral 0.9.
Screening COc1ccccc1NC(=O)CCc1c(C)[nH]c(=O)c(C#N)c1C returned H5N1 antiviral 1.1.
`Cc1ccsc1C1Nc2ccc3ncccc3c2C2=C1C(=O)CC(C)(C)C2` (configuration not stated) gave H5N1 antiviral inactive.
For Cc1nn(-c2ccc(Cl)cc2)c2sc(C(=O)N3CCN(c4ccccn4)CC3)cc12 the results were H5N1 antiviral inactive.
`CC(=O)C1=C(c2ccccc2)NC(=O)NC1c1ccccc1OCC(=O)Nc1ccccc1` (configuration not stated) gave H5N1 antiviral 0.5.
`CC(=O)Nc1ccc(S(=O)(=O)N2CCC(N(C)CCC(C)C)CC2)cc1` gave H5N1 antiviral 2.1.
O=c1cc(N2CCCCC2)c(-c2ccccc2)nn1Cc1ccc(Cl)cc1 was read as H5N1 antiviral 1.0.
`CC(C)NC(=O)CCCn1c(=S)[nH]c2cc3c(cc2c1=O)OCO3` gave H5N1 antiviral 1.1.
`CCCCC(=O)c1ccc(O)cc1` gave H5N1 antiviral 0.9.
COc1ccc(-c2oc3ncn(Cc4ccco4)c(=N)c3c2-c2ccc(OC)cc2)cc1 was read as H5N1 antiviral inactive.
Cc1nc(CS(=O)(=O)c2ccc(Cl)cc2)cc(Sc2ccccc2Cl)n1 was read as H5N1 antiviral 1.1.
`COC(=O)c1ccc(C(=O)OC)c(NC(=O)CN2CCN(c3ccccc3)CC2)c1` gave H5N1 antiviral 0.1.
`Cc1c(N(C)C(=O)C23CC4CC(CC(C4)C2)C3)c(=O)n(-c2ccccc2)n1C` gave H5N1 antiviral 1.1.
Screening O=C(Nc1ccccn1)c1cccnc1 returned H5N1 antiviral 3.5.
`CC1=NN(c2nc(-c3ccc(Cl)cc3)cs2)C(=O)C1` gave H5N1 antiviral inactive.
For O=C(Nc1ccccc1Cl)N1CCN(c2ccc3nncn3n2)CC1 the results were H5N1 antiviral 0.3.
`Cc1cc(NC(=O)CCCOc2ccc(Cl)cc2Cl)no1` gave H5N1 antiviral 0.9.
For COc1ccc2c(c1OC)C(=O)OC2Nc1ccccn1 (configuration not stated) the results were H5N1 antiviral 0.0.
O=C(OC(C(=O)NC1CCCC1)c1ccccc1F)c1ccco1 (configuration not stated) was read as H5N1 antiviral 0.4.
O=C1C2(c3ccccc3)CN3CN(C2)CC1(c1ccccc1)C3 was read as H5N1 antiviral 1.2.
`COC(=O)c1sccc1NC(=O)c1ccc(Br)s1` gave H5N1 antiviral 0.7.
For Cc1ccccc1-c1nc(CN2CCC(C(=O)O)CC2)c(C)o1 the results were H5N1 antiviral inactive.
Screening CC(C)C(c1nnnn1Cc1ccccc1)N1CCN(Cc2ccco2)CC1 (configuration not stated) returned H5N1 antiviral 0.4.
`CC(C)=C1C2C=CC1C(C(=O)Nc1cccc(C)c1)C2C(=O)O` (configuration not stated) gave H5N1 antiviral inactive.
For Cc1cccc(C(=O)Nc2nc(C)c(C(=O)Nc3ccc4c(c3)CCC4)s2)c1 the results were H5N1 antiviral 0.1.
For CCOc1ccccc1Nc1nc(-c2sc(NC(=O)c3ccco3)nc2C)cs1 the results were H5N1 antiviral inactive.
O=C(NCC1CCCO1)c1onc(CSc2cccc(Cl)c2)c1C(=O)O (configuration not stated) was read as H5N1 antiviral 0.7.
For Cc1nc2ccc(S(=O)(=O)NCC(=O)N3CCc4ccccc43)cc2s1 the results were H5N1 antiviral inactive.
Screening CC1(C)CSC(Nc2ccc(F)c(Cl)c2)=N1 returned H5N1 antiviral inactive.
For O=C(CNS(=O)(=O)c1ccccc1)N1CCN(c2ccccc2)CC1 the results were H5N1 antiviral 3.7.
Screening O=[N+]([O-])c1cccnc1N1CCC(c2cc(-c3ccc(Cl)cc3Cl)n[nH]2)CC1 returned H5N1 antiviral 3.2.
`N#Cc1c2n(c(=O)[nH]c1=O)CCCCC2` gave H5N1 antiviral inactive.
Screening O=S(=O)(c1cccc(C(F)(F)F)c1)N1CCN(c2nnnn2-c2ccccc2)CC1 returned H5N1 antiviral inactive.
Screening COc1cccc2cc(C(=O)CC3(O)C(=O)N(Cc4ccccc4)c4ccccc43)c(=O)oc12 (configuration not stated) returned H5N1 antiviral 0.7.
For CCOC(=O)c1nn(-c2cccc(OC)c2)c(-c2ccccc2)c1C(=O)c1ccccc1 the results were H5N1 antiviral inactive.
O=C(/C=C/Sc1ccccc1)c1ccccc1 was read as H5N1 antiviral inactive.
Screening O=S(=O)(c1ccc2nc(COc3ccc(Cl)cc3Cl)[nH]c2c1)N1CCOCC1 returned H5N1 antiviral 3.8.
CCCCCn1c(SCc2ccncc2)nc2cc(C(=O)NCc3ccco3)ccc2c1=O was read as H5N1 antiviral inactive.
CN(C/C(O)=C(\C#N)c1ccccc1)C1CCCCC1 was read as H5N1 antiviral inactive.
Screening COc1ccc2cc3cc(C(=O)NCc4ccco4)oc3nc2c1 returned H5N1 antiviral inactive.
Screening O=C(NCc1n[nH]c(=S)n1-c1ccccc1)c1ccco1 returned H5N1 antiviral inactive.
For Cc1cc(=O)oc(C)c1C(=O)Nc1cnc2ccccc2c1 the results were H5N1 antiviral 0.5.
`Cc1ncsc1C(=O)N1N=C2/C(=C/c3ccccc3)CCCC2C1c1ccccc1` (configuration not stated) gave H5N1 antiviral 5.2.
`C=CCOc1ccc(C(=O)NC2CCCCC2)cc1` gave H5N1 antiviral 1.2.
For Cc1cc(C)n2nc(SC(C)C(=O)NCc3ccco3)nc2n1 (configuration not stated) the results were H5N1 antiviral 0.7.
Screening COCCn1c(=S)[nH]c2ccc(N(C)C)cc2c1=O returned H5N1 antiviral inactive.
For CCOC(=O)c1c(C)c(C(=O)NC2CCCCC2)c(C)n1CC the results were H5N1 antiviral inactive.
For COc1ccc(C)cc1NC(=O)C(C)N(c1ccc(C)cc1)S(C)(=O)=O (configuration not stated) the results were H5N1 antiviral 0.3.
For O=C(NNc1ccc(C2CCCCC2)cc1)C(O)(c1ccccc1)c1cccs1 (configuration not stated) the results were H5N1 antiviral inactive.
CC(=O)Nc1cc(-c2ccccc2)ccc1O was read as H5N1 antiviral inactive.
For O=C(CN1CCN(S(=O)(=O)/C=C/c2ccccc2)CC1)NC(=O)NCc1ccco1 the results were H5N1 antiviral inactive.
`C=CCn1c(SCC(=O)c2ccccc2)nnc1-c1ccc2c(c1)OCO2` gave H5N1 antiviral 0.3.
O=C1CCCc2c1cc(C(=O)NC1CCSC1=O)c(=O)n2-c1ccccc1 (configuration not stated) was read as H5N1 antiviral 1.8.
For O=C(O)c1cccc(S(=O)(=O)N2CCCC2)c1 the results were H5N1 antiviral 1.2.
`C[C@@H](C(=O)Nc1ccccc1N1CCOCC1)N1C(=O)C2CC=CCC2C1=O` (some centres not stated) gave H5N1 antiviral inactive.
Screening CC(=O)c1cc(NC(=O)c2ccc(Cl)cc2)c(=O)oc1/C=C/N(C)C returned H5N1 antiviral 0.9.
`Cc1cccc(N(C(=O)Cn2nnc3ccccc32)C(C(=O)NCc2ccco2)c2ccncc2)c1` (configuration not stated) gave H5N1 antiviral 0.5.

Four records picked at random from those above, as already listed:
O=C1CCCc2c1cc(C(=O)NC1CCSC1=O)c(=O)n2-c1ccccc1 (configuration not stated) was read as H5N1 antiviral 1.8.
CCCCCn1c(SCc2ccncc2)nc2cc(C(=O)NCc3ccco3)ccc2c1=O was read as H5N1 antiviral inactive.
`C=CCOc1ccc(C(=O)NC2CCCCC2)cc1` gave H5N1 antiviral 1.2.
For O=C(CN1CCN(S(=O)(=O)/C=C/c2ccccc2)CC1)NC(=O)NCc1ccco1 the results were H5N1 antiviral inactive.

(cont.)
For CC(=C/C(=O)O)/C=C/c1cccs1 the results were H5N1 antiviral inactive.
Screening O=C(NC1(C(F)(F)F)Oc2ccc(Cl)cc2O1)N1CCC2(CC1)OCCO2 (configuration not stated) returned H5N1 antiviral inactive.
CCn1c(COc2ccccc2C)nnc1SCC(=O)Nc1cc(C)on1 was read as H5N1 antiviral 1.0.
For COc1ccc(N(CC(=O)N2CCc3ccccc32)S(=O)(=O)c2c(C)noc2C)cc1 the results were H5N1 antiviral inactive.
For Cn1nc(C(=O)N2CCCC2)c2ccccc2c1=O the results were H5N1 antiviral 0.6.
Screening COc1cccc2cc(C(=O)NCC3CCCO3)c(=O)oc12 (configuration not stated) returned H5N1 antiviral 1.6.
`COc1ccc(-c2cc(C(F)(F)F)nc(NC3CCCC3)n2)cc1OC` gave H5N1 antiviral inactive.
For Cc1cnc(NC(=O)c2ccc3c(c2)C(=O)N(Cc2ccco2)C3=O)s1 the results were H5N1 antiviral inactive.
For CCOC(=O)CC1C(=O)NCCN1C(=O)c1cccc(C(F)(F)F)c1 (configuration not stated) the results were H5N1 antiviral 0.6.
Screening NC(=O)CSc1nnc(-c2ccc(S(=O)(=O)N3CCCCC3)cc2)n1-c1ccccc1 returned H5N1 antiviral 1.6.
For CCOc1ccc2[nH]c(=O)c(CN(CCO)C(=O)c3ccc(F)cc3)cc2c1 the results were H5N1 antiviral inactive.
`CCN(CC(=O)Nc1c(C(=O)OC)[nH]c2ccc(Cl)cc12)c1ccc2c(c1)OCO2` gave H5N1 antiviral inactive.
CCOC(=O)c1cc(OCC(=O)NC(C)C(C)C)cc(C(=O)OCC)c1 (configuration not stated) was read as H5N1 antiviral inactive.
`CCOC(=O)CCCCC(=O)c1[nH]c(=O)[nH]c1CSc1nc(C)cc(=O)[nH]1` gave H5N1 antiviral 2.3.
COC(=O)C(C)Sc1nnc2n(-c3cccc(C)c3)c(=O)c3c4c(sc3n12)CCCC4 (configuration not stated) was read as H5N1 antiviral 0.7.
`CCC(=O)N(CCC(Cc1ccccc1)c1ccc2c(c1)OCO2)Cc1ccccc1F` (configuration not stated) gave H5N1 antiviral inactive.
Screening CCOc1cc(C2C(C#N)=C(N)OC(C)=C2C(C)=O)cc(Br)c1O (configuration not stated) returned H5N1 antiviral 1.7.
O=C(Oc1cc(-c2ccccc2)no1)c1cccc(C(F)(F)F)c1 was read as H5N1 antiviral inactive.
For Nc1[nH]n(-c2ccccc2)c(=O)c1N=Nc1ccccc1[N+](=O)[O-] the results were H5N1 antiviral inactive.
COc1ccc(C(=O)N2CCN(c3ncnc4c(-c5ccccc5)nsc34)CC2)cc1 was read as H5N1 antiviral 0.4.
`CNC(=O)CSCc1c(Cl)cccc1Cl` gave H5N1 antiviral inactive.
COCCn1c(-c2ccc(OC)cc2)nc2ccccc21 was read as H5N1 antiviral 0.8.
For O=C(CN1CCCC1)Nc1ccc(-c2nc3cc(NC(=O)CN4CCCC4)ccc3o2)cc1 the results were H5N1 antiviral inactive.
`Cc1cc(N2C(=O)C(O)=C(C(=O)c3ccc(C)o3)C2c2cccs2)no1` (configuration not stated) gave H5N1 antiviral inactive.
`COP(=O)(/C=C/c1ccccc1)C(O)c1ccc(F)cc1` (configuration not stated) gave H5N1 antiviral 0.2.
Cc1ccccc1NS(=O)(=O)c1ccc(OCC(=O)NCc2ccco2)cc1 was read as H5N1 antiviral inactive.
O=C(O)CSc1nnc(-c2ccco2)o1 was read as H5N1 antiviral 2.1.
For CCNc1cc2oc(=O)c(CN3CCOCC3)c(C)c2cc1C the results were H5N1 antiviral inactive.
For CCN1CCN(C(=O)c2cn(CC)c3ccc(S(=O)(=O)N(C)C)cc3c2=O)CC1 the results were H5N1 antiviral inactive.
`O=S(=O)(c1ccc(Cl)s1)N1CCC(Cc2ccccc2)CC1` gave H5N1 antiviral 1.9.
For CC(OC(=O)c1ccncc1)C(=O)Nc1cccc(Cl)c1 (configuration not stated) the results were H5N1 antiviral 0.2.
Screening CCC(=O)c1ccc(OCC(O)CN2CCN(c3ccc(F)cc3)CC2)cc1 (configuration not stated) returned H5N1 antiviral inactive.
`CNc1oc(Cc2ccccc2)nc1S(=O)(=O)c1ccc(Cl)cc1` gave H5N1 antiviral 0.8.
For CCN1C(=O)N(CC)C(O)(c2ccccc2)C1(O)c1ccccc1 (configuration not stated) the results were H5N1 antiviral 1.1.
`Cc1c(C(=O)N2CCCCCC2)nnn1-c1nonc1N` gave H5N1 antiviral 2.1.
Screening CCOC(=O)C(/C(N)=N/C(=O)Nc1ccccc1)=C(\C)O returned H5N1 antiviral 0.2.
Screening CCOc1ccccc1OCCn1nnc2ccccc21 returned H5N1 antiviral inactive.
COc1cccc(/C=C/C(=O)c2ccc[nH]2)c1 was read as H5N1 antiviral 1.1.
Screening Cc1ccc(-c2[nH]nc(N)c2N=Nc2cccc(Cl)c2C)cc1 returned H5N1 antiviral inactive.
Screening Cc1ccc(-c2noc(CSc3nnc(CCc4ccccc4)n3-c3ccccc3)n2)cc1 returned H5N1 antiviral inactive.
For O=C(NC1CCCCCC1)C1c2ccccc2C(=O)N1C1CC1 (configuration not stated) the results were H5N1 antiviral 0.4.

Ordered by formula weight (smallest number first): some entries from above.
Screening COCCn1c(=S)[nH]c2ccc(N(C)C)cc2c1=O returned H5N1 antiviral inactive.
Screening COc1ccc2cc3cc(C(=O)NCc4ccco4)oc3nc2c1 returned H5N1 antiviral inactive.
`Cc1cc(N2C(=O)C(O)=C(C(=O)c3ccc(C)o3)C2c2cccs2)no1` (configuration not stated) gave H5N1 antiviral inactive.
`Cc1ccsc1C1Nc2ccc3ncccc3c2C2=C1C(=O)CC(C)(C)C2` (configuration not stated) gave H5N1 antiviral inactive.
`Cc1ncsc1C(=O)N1N=C2/C(=C/c3ccccc3)CCCC2C1c1ccccc1` (configuration not stated) gave H5N1 antiviral 5.2.
CCCCCn1c(SCc2ccncc2)nc2cc(C(=O)NCc3ccco3)ccc2c1=O was read as H5N1 antiviral inactive.
Screening CCn1c(SCC(=O)N2CCN(S(=O)(=O)c3ccccc3)CC2)nnc1-c1cccs1 returned H5N1 antiviral 1.1.
